Screening results: PubChem, Broad Institute
Tgondii IFNg: T. gondii growth inhibition with IFN-gamma, primary screen, cell-based; Toxoplasma gondii growth in IFN-gamma-treated host cells; active compounds read low; reference of the scale not given here; activity change, negative = inhibition, %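 (about 20 µM by stock and volumes)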; hit rate 3.8% among 69,000; AID 1259416, 2018;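 active = below -70%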;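 note: host cells are HeLa cells infected with Toxoplasma gondii; parasite growth read as luciferase light; one replicate is shown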
* hit, by the source's call; i = inactive; & = joins results of further samples. Some of the compounds tested; rates above refer to the full screens.

SMILES	Tgondii IFNg
Cn1cnc(S(=O)(=O)N2CCC3(CC2)Nc2ccc(Cl)cc2-n2cccc23)c1	0
Nc1ncc(C(=O)N2CCCC(CCc3ccc(F)cc3)C2)c(-c2ccccc2)n1 (stereo not drawn)	-27
Cc1n[nH]c(C)c1Cc1ccc(NC(=O)c2nn3cccnc3c2Cl)cc1	78
O=S(=O)(c1ccc(F)cc1F)N1CCC2(CC1)Nc1ccc(Cl)cc1-n1cccc12	-51
COc1cccc(CNC(=O)c2nc3c(o2)CN(Cc2ccccc2)C3)c1	10
COc1ccc(NC2CCCN(C(=O)CCn3c(C)cccc3=O)C2)cc1 (stereo not drawn)	4
Cc1ccc(-c2coc(-c3ccc(NC(=O)C(C)(C)C)cc3)n2)cc1	9
COC(=O)c1cc2n(n1)CCCN(C(=O)c1snnc1C)C2	32
CC1=C(C(=O)NCc2ccc3c(c2)OCO3)C2(CCN(S(=O)(=O)c3cccs3)CC2)OC1=O	27
CCN(CC)C(=O)[C@@H]1C[C@@H](N)CN1C(=O)c1c(C)c2cc(F)ccc2n1C	10

Entries shown so far with four or more nitrogen atoms, in the order listed:
SMILES	Tgondii IFNg
Cn1cnc(S(=O)(=O)N2CCC3(CC2)Nc2ccc(Cl)cc2-n2cccc23)c1	0
Nc1ncc(C(=O)N2CCCC(CCc3ccc(F)cc3)C2)c(-c2ccccc2)n1 (stereo not drawn)	-27
Cc1n[nH]c(C)c1Cc1ccc(NC(=O)c2nn3cccnc3c2Cl)cc1	78
COC(=O)c1cc2n(n1)CCCN(C(=O)c1snnc1C)C2	32
CCN(CC)C(=O)[C@@H]1C[C@@H](N)CN1C(=O)c1c(C)c2cc(F)ccc2n1C	10

Further records
SMILES	Tgondii IFNg
CN(Cc1ccccn1)C(=O)c1ccc2nnc3ncn(CC4CCCO4)c3c2c1 (stereo not drawn)	-13
O=C(c1cc2ccccc2[nH]1)N1CCC(c2[nH]ncc2Cc2ccccc2)CC1	-12
CCc1ccc(-c2noc(-c3c(O)c4ccccc4[nH]c3=O)n2)cc1	33
COc1ccc(C(=O)N2CCN(S(=O)(=O)c3cc4c5c(c3)CCN5C(=O)CC4)CC2)c(OC)c1	35
COc1ccc(-c2ccc(C)cn2)cn1	18
COc1ccc(-c2ccc([C@@H]3[C@H](CN(C)S(C)(=O)=O)N[C@@H]3CO)cc2)cc1	16
Cc1nn(C)c(C)c1C(C)NC(=O)C(=O)c1cccs1 (stereo not drawn)	-38
CC(C)CN1C(=O)CCc2cc(NC(=O)c3ccc(N(C)C)cc3)ccc21	-66
OC(Cn1c(=NC2CCCCC2)sc2ccccc21)c1ccccc1 (stereo not drawn)	-72*
COC(=O)c1cccc(C2CC(=O)Nc3cc(O)c(C)cc32)n1 (stereo not drawn)	-81*

Brought forward from above: 6 entries, followed by the next part.
SMILES	Tgondii IFNg
COc1ccc(-c2ccc(C)cn2)cn1	18
COc1ccc(-c2ccc([C@@H]3[C@H](CN(C)S(C)(=O)=O)N[C@@H]3CO)cc2)cc1	16
Cc1nn(C)c(C)c1C(C)NC(=O)C(=O)c1cccs1 (stereo not drawn)	-38
CC(C)CN1C(=O)CCc2cc(NC(=O)c3ccc(N(C)C)cc3)ccc21	-66
OC(Cn1c(=NC2CCCCC2)sc2ccccc21)c1ccccc1 (stereo not drawn)	-72*
COC(=O)c1cccc(C2CC(=O)Nc3cc(O)c(C)cc32)n1 (stereo not drawn)	-81*
Cn1cccc1C(=O)N1CCCC2(CC(Nc3ncccc3F)CO2)C1 (stereo not drawn)	3
Cc1cc(C(=O)Nc2ccc3c(c2)C(=O)N(C)[C@H]2CC[C@@H](CC(=O)O)O[C@@H]2CO3)no1	-23
CCCNC(=O)N(C)C[C@H]1Oc2cc(C#C[C@H](C)O)ccc2S(=O)(=O)N([C@@H](C)CO)C[C@@H]1C	103
O=C(O)C1CCN(C(=O)COc2ccc3c4c(c(=O)oc3c2)CCC4)CC1	-2
COc1ccc(NC(=O)c2c(O)c3cccnc3[nH]c2=O)c(OC)c1	27
CS(=O)(=O)N1Cc2cncn2CC(COCC(=O)N2CCCC2)C1 (stereo not drawn)	-4
CCCCNC(=O)N1CCc2nc(-c3cnn(C)c3)nc(NC3CC3)c2C1	-4
CC(=O)N1CCC(C(=O)NCc2ccccc2)(N(Cc2ccc(N(C)C)cc2)C(=O)c2ccc(C)cc2)CC1	230
CCC(=O)Nc1ccc2c(c1)CCC(=O)N2CCOC	43
CCN1CCC2(CN(C(C)=O)CC23CCN(CC2CC2)CC3)C1=O (stereo not drawn)	-41
CC(C)NC(=O)N1C[C@@H]2OCCN(c3cnccn3)[C@H]2C1	-44
Cc1ccc(CNC(=O)c2nc(Nc3ccc(C)cc3)c3ccccc3n2)cc1	41
O=C(c1ccncc1)N1C[C@@H]2[C@H](c3ccccc31)[C@H](CO)N2Cc1ccccc1F	6
OCCOCCN1CCN(Cc2cccc(Oc3ccccc3)c2)CC1	-1
Cc1ccc(Cl)cc1NC(=O)c1c(O)c2ccccc2n(-c2ccccc2)c1=O	-6
CCOC(=O)CSC1=Nc2ccccc2C2=NC(CC(=O)NCc3ccco3)C(=O)N12 (stereo not drawn)	15
CCC1=NC2(CCC(C(=O)Nc3cnccc3C)CC2)C(=O)N1C (stereo not drawn)	-42
Cc1c(NC(=O)COc2ccc3nsnc3c2)n[nH]c1-c1cccs1	117
CC(C)NCC(O)COc1ccccc1-n1cccc1 (stereo not drawn)	17
Cc1ncc(-c2ccccn2)c(C2CCC(CNC(=O)c3scnc3C)CC2)n1 (stereo not drawn)	8
Cn1ccnc1CN(C(=O)c1c(O)cccc1O)C1CC1	5
C[C@H]1CN([C@@H](C)CO)C(=O)c2cc(NS(=O)(=O)c3ccc(F)cc3)ccc2O[C@@H]1CN(C)C(=O)Nc1ccccc1	-12
O=C(C[C@@H]1C=C[C@@H](NS(=O)(=O)c2ccccc2)[C@@H](CO)O1)NCCN1CCCCC1	-13
COCC(=O)N1CCc2ccc(=O)n(Cc3cccc(C)n3)c2CC1	24
CN(C)CCn1ccnc1-c1ccc(C#CC(C)(C)O)cc1	0
Cc1noc(C)c1S(=O)(=O)Oc1ccccc1N1CCOCC1	35
COc1ccc2c3c([nH]c2c1)[C@H](CO)N(C(=O)Nc1ccc(F)cc1)CC31CCN(C(=O)c2ccccc2F)CC1	32
O=C1CC(c2ccc(Cl)cc2)Cc2nc3nc4ccccc4n3cc21 (stereo not drawn)	331
COc1cccc(NC(=O)/C=C/c2ccc(Cl)cc2)c1	23&171
CCOc1ccccc1-n1c(CCN)n[nH]c1=O	-7
CCNC(=O)C[C@@H]1CC[C@@H]2[C@H](COC[C@H](O)CN2C(=O)C2CCCC2)O1	8
Cc1ccccc1CCC1CCCN(CC(=O)Nc2cnn(C)c2)C1 (stereo not drawn)	-8
Cc1cc(C(=O)N2CCC3(CC2)CC(=O)N(C)c2ccccc23)n[nH]1	0
CCOC(=O)Nc1cc(OC)c(OC)cc1C(=O)OC	1
Cc1ccccc1C(=O)NCCc1nc(-c2ccncc2)n[nH]1	-7
C[C@H]1CN([C@@H](C)CO)C(=O)CCCn2nncc2CO[C@@H]1CN(C)C(=O)c1cc(-c2ccccc2)on1	-56
COC(=O)c1cc(S(=O)(=O)Nc2nn(C)c3cccc(F)c23)oc1C	89
Cc1ccsc1-c1cc(C(=O)O)cc(S(=O)(=O)NCC2CCCO2)c1 (stereo not drawn)	-1
CCc1[nH]c2ccc(CNC(=O)C(=O)N3CCOCC3)cc2c1C	7
COc1cccc(-c2ccc([C@H]3[C@H]4CN(C(=O)c5cccnc5)CC(=O)N4[C@H]3CO)cc2)c1	6
CCOc1ccc(-c2nc3c(s2)CN(S(=O)(=O)c2cc(F)ccc2C)CC3)cc1	-95*
O=C1C2C3C=CC(C4CC34)C2C(=O)N1/N=C/c1ccc(-c2ccc([N+](=O)[O-])cc2)o1 (stereo not drawn)	4
FC(F)(F)c1cc(N2CCc3ccccc3C2)c2cccc(Cl)c2n1	-33
CN1CC2(CCCN(Cc3nc4ccccc4s3)C2)OC1=O (stereo not drawn)	1
CSc1cccc(NC(=O)/C=C/c2ccccc2)c1	215
Cc1nc(-c2ccccc2)sc1CCNS(=O)(=O)c1cc(F)ccc1F	314
O=C(O)c1ccc(NC(=O)[C@H](Cc2ccc(O)cc2)NC(=O)c2ccccc2)cc1	5
O=C(NCCc1csc(-c2ccccc2)n1)[C@H]1CCCN1S(=O)(=O)c1ccc(Cl)s1	-68
Cc1cccnc1CN1CCN(CC(C)(C)CN2CCOCC2)CC1	3
CC(C)(C)n1nnnc1C(c1ccc(Cl)cc1)N1CCCc2ccccc21 (stereo not drawn)	-49

Random excerpt: two compounds from above.
SMILES	Tgondii IFNg
COC(=O)c1cc2n(n1)CCCN(C(=O)c1snnc1C)C2	32
CCc1ccc(-c2noc(-c3c(O)c4ccccc4[nH]c3=O)n2)cc1	33

Continuation:
SMILES	Tgondii IFNg
CN(C)C(=O)COCC1CN(CC2CCOCC2)Cc2ncn(C)c21 (stereo not drawn)	-9
CCCC(=O)Nc1nc2ccccc2s1	187
COc1cc(C(=O)N/C(=C\c2cn(C)c3ccccc23)C(=O)NCCCO)cc(OC)c1OC	-2
CC(=O)N[C@@H]1C[C@H](CC(C)C)O[C@H](c2cn[nH]c2C2CCCCC2)C1	36
CCOc1ccc(NC(=O)Cn2ncc3c(N4CCC(C)CC4)ncnc32)cc1	-31
C[C@@H]1CN([C@H](C)CO)S(=O)(=O)c2ccc(C#CCC3CCCC3)cc2O[C@@H]1CN(C)C(=O)c1cnccn1	-69
O=C(NN1C(=O)[C@@H]2[C@@H]3C=C[C@@H]([C@H]4C[C@@H]34)[C@@H]2C1=O)c1ccc(C(F)(F)F)cc1	-2
COc1ccc(NC(=O)NCC(c2cccnc2)c2cn(C)c3ccccc23)c(OC)c1 (stereo not drawn)	i
Cc1occc1C(=O)N1CC[C@@H]2OCCN(Cc3ccncc3)[C@@H]2C1	-52
COc1cccc(NC(=O)Nc2ccc(-c3nc(-c4cc(C)ccc4C)co3)cc2)c1	-19
CC(c1ccccn1)N(C)Cc1nc2ccccc2n1C(C)C (stereo not drawn)	-20
Cc1oc(-c2cccc(Cl)c2)nc1Cn1nnc(C(=O)Nc2cccc(Cl)c2)c1C	-86*
O=C(CCc1ccc2nc(-c3ccccc3)[nH]c2c1)N1CCC(N2CCCCC2)CC1	35
Cc1c(Cl)cccc1NC(=O)Cn1c(=O)cc(C(=O)N2CCC(C)CC2)c2ccccc21	2
CCc1ccccc1NC(=O)CCNc1ncnc2c1CCNC2	-3
N#C[C@@H]1[C@H](c2ccccc2)[C@H](CO)N1C(=O)c1ccc2c(c1)OCO2	5
Cc1cccc(-c2cn[nH]c2C2CCN(C(=O)c3noc(C)c3CO)CC2)c1	-6
COCC(=O)N1[C@H](CO)[C@H](c2ccc(C#CC(C)C)cc2)[C@@H]1CNC(C)=O	-20
Cc1cc2nc(C(=O)N3CCC(O)(CN(C)C)C3)cc(C)n2n1 (stereo not drawn)	1
Cc1oc(-c2ccc(NC(=O)CCc3ccccc3)cc2)nc1Cn1cccn1	-25
Cc1nn(C)cc1S(=O)(=O)N1CCC(c2ccn[nH]2)C1 (stereo not drawn)	11
CSc1sc(C(=O)NC(=O)NCc2cccnc2)c(C)c1-c1ccno1	-65
Cc1ccccc1S(=O)(=O)N1CC[C@@H]2[C@H]1c1cc(-c3cccc(F)c3)ccc1N(C)[C@H]2CO	-68
Cc1cccc(-c2ccc(C3[C@H]4CNC[C@@H]3N4Cc3cccc(F)c3)cc2)c1 (stereo partly drawn)	-20
Cc1c(CC(=O)O)sc2ccc(Cl)cc12	23
O=C(CCc1cc(=O)[nH]o1)N1CC[C@@H](c2ccc3ccccc3c2)[C@H](O)C1	3
Cc1ccccc1NC(=O)N1CCC(c2nc(C(=O)N3CCOCC3)c(C)o2)CC1	-25
CCN1CCC2(CC1)OC(=O)C(C)=C2C(=O)Nc1ccc(CN2CCC(C)CC2)cc1	-4
CCCc1cc2c(cc1NC(=O)CCc1nc(-c3cccnc3)no1)OCO2	41
N#Cc1ccc(OCC2CN(c3ncccn3)Cc3cncn3C2)nc1 (stereo not drawn)	5
Cn1cnc2c1C(C(=O)N1CCCC(O)C1)N(Cc1ccccc1)CC2 (stereo not drawn)	-7
COc1cccc(C(=O)Nc2ccc3c(c2)C(=O)N(C)[C@@H]2CC[C@H](CC(=O)N[C@H](C)c4ccccc4)O[C@@H]2CO3)c1	-60
CC(=O)N1CCc2[nH]nc(C(=O)N3CCOCC3)c2C1	354
Clc1ccc(-c2nnn(Cc3nc4ccccc4s3)n2)cc1	14
O=C(c1ccccc1)N1C[C@@H]2CN(c3cnccn3)CC[C@H]2C1	42
COc1ccc(-c2nc3c(s2)CN(S(=O)(=O)c2cccc(Cl)c2)CC3)cc1	0
CCOc1ccc(NC(=O)c2nc3ccccc3nc2-n2nc(C)cc2C)cc1	-99*
CN1C(=O)c2cc(NC(=O)Cc3cccs3)ccc2OC[C@H]2O[C@@H](CC(=O)NCC3CCCCC3)CC[C@@H]21	-23
COc1ccc(C(=O)NCCc2sc(-c3cccc(C)c3)nc2C)cc1	224
CC(C)N(C)Cc1ncn2c1CN(C(=O)c1cccn1C)CCC2	-6
CS(=O)(=O)NC[C@@]12COC[C@@H]1CN(CC1CCC1)C2	-9
COc1ccc2c3c([nH]c2c1)[C@@H](CO)N(C(=O)CN(C)C)CC31CN(CC2CC2)C1	-5
CC(C)Cc1cc(CN2CC(C(=O)O)CC2=O)on1 (stereo not drawn)	-7
